Screening data deposited in PubChem BioAssay by ICCB-Longwood Screening Facility, Harvard Medical School.
BasE inh – BasE siderophore enzyme inhibitors, primary screen, biochemical, Acinetobacter baumannii ATCC 17978, fluorescence polarization. purified BasE, fluorescence polarization binding displacement. inhibition, % (no concentration beside the values). 84,000 tested, 0.1% active. AID 485350, 2010;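 active means both replicates above 25% with normal brightness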;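 further: 0% = negative plate control signal and 100% = positive plate control signal; stock transfer was 100 nL into about 30 µL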
LANA-nucl inh – inhibitors of KSHV LANA-nucleosome binding, primary screen, biochemical, fluorescence polarization, FITC-LANA1-23, chicken nucleosomes; z-score (test concentration not listed); AID 720717, 2013; FITC-LANA1-23 / chicken nucleosome fluorescence polarization; active compounds read low; 51,000 tested, 0.3% active;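 active means both repeat wells score below -2 in polarization z-score versus plate sample wells, excluding overly bright wells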;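 further: 100 nL library stock added to about 30 µL; numbers are from one replicate; some results filed as inactive read as strong as hits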
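Assay system: purified chicken nucleosomes with FITC-labelled LANA N-terminal peptide (1-23) / Probe or stimulus: 50 nM FITC-LANA1-23 probe / Compound dosing: pin-transferred compound, 100 nL / Times: compound with peptide–nucleosome mix 10–45 min at room temperature / Technique: fluorescence polarization, 480 nm excitation, 535 nm parallel and perpendicular emission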
An asterisk follows results filed as active; . = not tested or not shown. Only part of the results is shown. The share of hits here may be higher or lower than overall.

Structure | BasE inh | LANA-nucl inh
CC12CCC(=O)N1C(C(=O)OCC(=O)N1CCN(S(=O)(=O)c3ccc4ccccc4c3)CC1)CS2 (configuration not stated) | 3.6 | .
Cc1ccc2nc(=O)c(NNc3ccccc3)cnc2c1 | 1.1 | .
COc1ccc(CC(=O)Nc2ccc(-n3cnnn3)cc2)cc1OC | -1.9 | .
O=S(=O)(c1ccc(S(=O)(=O)N2CCCC2c2ccc3c(c2)OCCCO3)cc1)N1CCCC1 (configuration not stated) | 2.9 | .
CCN1CCN(C(=O)N2c3ccccc3Sc3ccccc32)CC1 | -0.7 | 0.059
CCOc1ncccc1C(=O)OCC(=O)c1ccccc1 | -0.3 | .
Cn1nc(C(F)(F)F)c(C#N)c1NCc1ccccc1 | . | -0.66
CC1(C)CC2=NN(c3ccccc3)P(=S)(NCc3ccco3)C2=C(N2CCCCC2)C1 (configuration not stated) | 0.6 | .
Cc1c(C(=O)/C=C/N(C)C)nnn1-c1cc(Cl)ccc1Cl | . | 0.3
CCOC(=O)c1[nH]c(C)c(C(=O)N2CCC(C(=O)OCC)CC2)c1C | -0.9 | 0.98
N#CSCC(=O)c1cccc2ccccc12 | 1.9 | -1.2
O=C(c1ccc(NS(=O)(=O)/C=C/c2ccccc2)cc1)N1CCN(c2ncccn2)CC1 | -0.4 | .
CC(Oc1cccc(Br)c1)C(=O)NN (configuration not stated) | 3.3 | .
Cc1ccccc1SCC(=O)O | 1.9 | -0.39
COc1ccc2cc(COC(=O)c3ccc(Br)o3)c(Cl)nc2c1 | 0.9 | .
Cc1c(OC(=O)c2ccco2)ccc2c(=O)c(-c3nc4ccccc4s3)coc12 | 0.5 | 0.59
O=C(CN1C(=O)/C(=C/c2ccccc2Cl)SC1=S)Nc1ccccc1C(F)(F)F | 0.5 | .
CC[n+]1ccccc1/C=C/N(C(C)=O)c1ccccc1 | -0.4 | .
O=C(NCc1ccco1)NC1CC(=O)N(c2ccccc2)C1 (configuration not stated) | 0.6 | -0.98
CSc1cccc(NC(=O)CSc2nnc(Cc3ccccc3)o2)c1 | -1.3 | -0.36
CCOc1ccc(N2C(=O)CC(Cc3ccccc3OC)C2=O)cc1 (configuration not stated) | 0.2 | 0.0055
O=S(=O)(c1ccc(Cl)cc1)n1ccc(-c2ccc(Br)s2)n1 | 2.4 | -1.1
N#Cc1cccc(C(c2nnnn2Cc2ccc(F)cc2)N2CCc3ccccc32)c1 (configuration not stated) | -3.3 | 2.8
O=C(O)C1CC2C=CC1O2 (configuration not stated) | 0.3 | -1.1
CN1CCN(C(=O)Nc2ccc(Cc3ccc(NC(=O)N4CCN(C)CC4)cc3)cc2)CC1 | 2.0 | -0.6

In a second layout: entries from further up
Every second line gives: BasE inh	LANA-nucl inh
CCOC(=O)c1[nH]c(C)c(C(=O)N2CCC(C(=O)OCC)CC2)c1C
  -0.9	0.98
N#CSCC(=O)c1cccc2ccccc12
  1.9	-1.2
O=C(c1ccc(NS(=O)(=O)/C=C/c2ccccc2)cc1)N1CCN(c2ncccn2)CC1
  -0.4	.
CC(Oc1cccc(Br)c1)C(=O)NN (configuration not stated)
  3.3	.

Later entries:
Structure | BasE inh | LANA-nucl inh
CC(NC(=O)NCc1ccccc1)c1ccccc1 (configuration not stated) | -0.3 | -0.19
CCC(CC)C(=O)OCc1csc(Nc2ccccc2)n1 | -0.3 | .
Cc1ccc(N2CC(=O)N(/N=C/c3ccncc3)CC2=O)cc1 | 2.4 | -0.016
COc1cccc(C(=O)/C=c2\[nH]c(=O)/c(=C\c3cccs3)s2)c1 | -1.1 | .
CCCc1nnc(SCC(=O)N2CCCCC2C)n1CC (configuration not stated) | -0.3 | -1.5
N/C(=N/S(=O)(=O)c1ccccc1)N1CCCCC1 | 1.6 | -0.24
COC(=O)c1cc(C(=O)OC)c(C)nc1C | 2.0 | 0.29
CCCCn1c(N)nc2ccccc21 | 3.5 | .
CC1CCCN(C(=O)c2cccc(Cl)c2)C1 (configuration not stated) | 3.9 | -0.29
COCCNC(=O)c1c[nH]n2c(=O)c(Cc3ccc(Cl)cc3)c(C)nc12 | -0.8 | 0.76
COc1cccc2c(=O)cc(C)n(CC(=O)Nc3ccccc3)c12 | -0.3 | 1.7
Cc1ccn2cc(C(=O)NC3CCCCC3)nc2c1 | -1.4 | 0.73
CC(=O)NC1CC(C)(C)NC(C)(C)C1 | 2.0 | .
CN(C(=O)c1cccs1)c1ccccc1C(=O)O | 3.0 | .
CN(C)C=NC1=NN(c2ccccc2)CC1 | 2.1 | .
Cc1cc(C(=O)Nc2ccccc2N2CCCCC2)nn1C | . | -1.6
O=C(Nc1ccc(N2C(=O)C3C4C=CC(C4)C3C2=O)cc1)Nc1nncs1 (configuration not stated) | 1.4 | .
COc1cc(NC(C)C(=O)N2CCCC2)cc(OC)c1OC (configuration not stated) | 1.1 | .
Cc1nnc(SC(=O)Cn2c3ccccc3c3ccccc32)s1 | 0.8 | -0.14
CN(C)/C=C/C(=O)c1ccc2c(c1)CCC(C)(C)O2 | 2.0 | .
CC1CC(C)CN(S(=O)(=O)c2ccc(C(=O)Nc3nccs3)cc2)C1 (configuration not stated) | -1.0 | .
O=C(NCCc1nnc2ccc(N3CCCCCC3)nn12)c1ccccc1 | -0.1 | -0.41
CCCCOC(=O)c1ccc(OC(=O)c2cccnc2)cc1 | 2.3 | -0.17
Clc1cccc(NCc2nnc(SCc3ccccc3)o2)c1 | 1.1 | -0.32
NC1=NC(c2ccccc2)n2c(nc3ccccc32)N1 (configuration not stated) | 1.1 | -0.57

The last two compounds of the section before are carried over, then new ones follow:
Structure | BasE inh | LANA-nucl inh
Clc1cccc(NCc2nnc(SCc3ccccc3)o2)c1 | 1.1 | -0.32
NC1=NC(c2ccccc2)n2c(nc3ccccc32)N1 (configuration not stated) | 1.1 | -0.57
CCCCC(=O)NC(c1ccco1)c1cc(Cl)c2cccnc2c1O (configuration not stated) | 4.0 | 0.56
O=S(=O)(c1ccc(Cl)cc1)N1CCCC1c1nc(-c2ccccc2)no1 (configuration not stated) | 0.8 | 0.088
Nc1ncnc2nc(SCCC(=O)O)[nH]c12 | 1.0 | 0.45
COc1ccc(Cc2n[nH]c(=S)o2)cc1 | 1.2 | .
Cc1nn(-c2ccccc2)cc1C1C=C(c2ccc(Cl)cc2)N=C2SCC(=O)N21 (configuration not stated) | -2.0 | .
CC(C)(C)c1csc(NC2=NCCC2)n1 | 1.5 | .
COc1ccccc1NC(=O)c1c[nH]c2ccccc12 | . | 0.11
COC(=O)c1ccc(OC)c(CN2CCN(Cc3ccccc3Cl)S2(=O)=O)c1 | -0.3 | .
O=C(N/N=C/c1cccs1)C1=COCCO1 | 3.8 | .
CN(C)C(=O)CSc1nc2ccccc2c(=O)n1-c1ccccc1 | -2.9 | 0.12
O=C1COc2ccccc2N1Cc1c(F)cccc1Cl | -1.1 | -0.72
CC(C)Cc1nnc(NS(C)(=O)=O)s1 | -0.9 | 1.6
Cc1nc2ccccn2c1-c1ccnc(SCC(=O)c2cccc(C(F)(F)F)c2)n1 | 1.8 | .
CCOC(=O)c1ccc(N2CCN(c3cccc(Cl)c3)CC2)c(NC(=O)Nc2ccccc2)c1 | -1.6 | 0.0095
CCOC(=O)C1=NNC2C(=O)N(c3cc(Cl)ccc3OC)C(=O)C12 (configuration not stated) | 3.1 | -0.51
Cc1ccc2c(CN3CCC(C)CC3)cc(=O)oc2c1 | -0.4 | .
CCN1C(=O)N/C(=C/c2ccc(OCC(=O)O)cc2)C1=O | 3.9 | -0.88
O=C(CNc1ccc(F)cc1)N/N=C/C1CC=CCC1 (configuration not stated) | -1.6 | .
O=C(CN1CCN(Cc2ccccc2)CC1)NCc1ccco1 | 0.8 | -0.75
CC1CCC(NC(=O)c2ccccc2N)CC1 (configuration not stated) | -3.3 | 0.23
CCN(CC)c1ccc(C2C3=C(CC(C)(C)CC3=O)OC3=C2C(=O)CC(C)(C)C3)cc1 | 2.0 | .
COC(=O)c1ccc(NC2=NCCCCC2)s1 | -1.7 | .
Cc1ccc2nc(N=C(N)N)nc(C)c2c1 | -3.3 | 0.84
CCOC(=O)c1cccc(NS(=O)(=O)c2ccc3c(c2)CCCN3C(C)=O)c1 | -1.1 | -0.51
O=C(O)C1CC(=O)N(CCc2c[nH]c3ccccc23)C1 (configuration not stated) | . | 2.3

More structures follow.
Structure | BasE inh | LANA-nucl inh
Cc1ccc(-c2cc(Cc3ccc(N(C)C)cc3)c(=O)[nH]n2)cc1 | -5.2 | 2
Cn1c(O)c(N=N)c2ccccc21 | -0.1 | .
O=C1CC(c2ccc(F)cc2)CC(O)=C1C1NCCc2ccccc21 (configuration not stated) | . | -1.7
S=c1[nH]nc(Cn2cnc3ccccc32)n1-c1ccccc1Cl | 1.8 | .
O=c1cc(Nc2cccc(Br)c2)[nH]c(=O)[nH]1 | -0.9 | 0.39
Cn1c(SCC(=O)Nc2ccc3c(c2)OCCO3)nnc1C(F)(F)F | 1.2 | .
CC1CCN(c2ccc3nnc(CCC(=O)O)n3n2)CC1 | 0.1 | -0.07
Cc1csc(=O)n1CCOC(=O)c1ccc(Br)cc1 | 0.6 | .
c1ccc2c(c1)ccc1oc(-c3ccn[nH]3)cc12 | . | 1.7
CNC(=O)CSCc1ccc(C(=O)OC)o1 | 0.4 | .
Cn1cnc2cc(NCc3ccco3)ccc21 | -0.1 | -0.034
O=S(=O)(c1ccc(NC(=S)NCCc2ccccn2)cc1)N1CCOCC1 | 0.6 | .
CC(C)(C)c1ccc(Cn2c(CN3CCOCC3)nc3ccccc3c2=O)cc1 | -1.4 | .
O=C(C1CCC1)N1CCCC(c2nc3c(nnn3Cc3cccc(Cl)c3)c(=O)[nH]2)C1 (configuration not stated) | -3.4 | 3
N#CCN(CC#N)C(=O)C1CC(=O)N(c2ccc(F)cc2)C1 (configuration not stated) | 0.1 | -0.88
CCCc1oc(C(=O)O)cc1CN(CC)CC | 2.3 | -0.014
COc1cc(/C=C(/NC(=O)C2CCCCC2)C(=O)N2CC3CC(C2)c2cccc(=O)n2C3)cc(OC)c1OC (configuration not stated) | 0.3 | -1.5
CCc1nnsc1C(=O)Nc1nc2ccc(C)cc2s1 | 0.7 | -1.1
CCNc1nc(NCC)nc(N(C)N)n1 | 3.3 | 0.083
CC(C)c1nc(N)n[nH]1 | 2.3 | -0.52
Cc1nnc(NC(=O)C(C)Sc2nncn2C)s1 (configuration not stated) | 2.9 | 0.62
O=C(NCc1cccs1)C1(c2ccccc2)CC1 | -0.5 | .
O=C(Nc1c(F)cccc1Cl)N1CCCC1 | . | 0.5
C/C(N)=C(/C#N)C(=O)CSc1nc2ccccc2c(=O)n1Cc1ccc(C)cc1 | -1.1 | .
CC(C)c1ccc(/C=N/n2nnnc2Nc2ccccc2)cc1 | -2.7 | -1.4

More compounds follow.
Structure | BasE inh | LANA-nucl inh
O=C1OCc2c1[nH]c(=O)[nH]c2=O | 2.7 | -0.8
Cc1cc2[nH]c(=O)c3ccccc3n2n1 | 1.9 | .
CN(C)c1ccc(/C=C2\C(=O)Nc3ccccc32)cc1 | 0.9 | 1.3
CCOc1ccc(S(=O)(=O)NCCO)cc1C | 1.2 | -1.1
CCOC(=O)Cc1csc(NC(=O)c2cc3c(=O)n4cccc(C)c4nc3n2C)n1 | -1.1 | -0.97
COc1ccccc1C1OC(=O)C[C@H]1C(=O)NN (some centres not stated) | 2.9 | .
COC(=O)CSc1nc(N)c(C#N)c(-c2ccccc2)c1C#N | 2.4 | -1.6
CCCNC(=O)Nc1ccc(Br)cc1F | 2.0 | -0.79
CCC(=S)/C=C1/Sc2ccc(Cl)cc2N1CC | 1.5 | .
O=C(OCc1cc(Cl)cc2c1OCOC2)c1ccc(COc2ccccc2)o1 | 0.8 | .
CCOC(=O)Cn1cc(F)c(=O)[nH]c1=O | -0.9 | .
O=C(COC(=O)c1n[nH]c2ccccc12)NC1CCCCCC1 | -5.3 | .
FC(F)(F)c1ccc(N2CCN(C(=S)NC3CC3)CC2)nc1 | 0.4 | .
Cc1nnnn1CCC(=O)NC(C)c1ccccc1 (configuration not stated) | 0.9 | 0.19
CCCN(C(=O)c1coc(=O)c2ccccc12)c1cccc(C)c1 | 2.6 | 0.032
COC(=O)c1ccccc1NC(=O)C1CC(c2ccccc2OC)=NO1 (configuration not stated) | -5.8 | -1.1
COc1ccc(-c2coc3cc4oc(=O)ccc4cc23)cc1 | 4.0 | 1.3
Cc1ccc(NC(=O)N2c3ccccc3Sc3ccccc32)c(C)c1 | 0.1 | .
O=C(CSc1nnc(-c2ccc(F)cc2)o1)N(Cc1nc2ccccc2c(=O)[nH]1)CC1CCCO1 (configuration not stated) | 1.8 | .
CC1(N2CCOCC2)CC(=O)N(c2ccccc2)O1 (configuration not stated) | 1.6 | -0.83
CN(Cc1nc2ccccc2c(=O)[nH]1)C(=O)c1cc(Br)cc(Br)c1O | 6.5 | .

Retrieved by compound from above, seven records:
Structure | BasE inh | LANA-nucl inh
Cc1cc2[nH]c(=O)c3ccccc3n2n1 | 1.9 | .
CCCNC(=O)Nc1ccc(Br)cc1F | 2.0 | -0.79
CCCN(C(=O)c1coc(=O)c2ccccc12)c1cccc(C)c1 | 2.6 | 0.032
COC(=O)CSc1nc(N)c(C#N)c(-c2ccccc2)c1C#N | 2.4 | -1.6
CC1(N2CCOCC2)CC(=O)N(c2ccccc2)O1 (configuration not stated) | 1.6 | -0.83
O=C(CSc1nnc(-c2ccc(F)cc2)o1)N(Cc1nc2ccccc2c(=O)[nH]1)CC1CCCO1 (configuration not stated) | 1.8 | .
CCOc1ccc(S(=O)(=O)NCCO)cc1C | 1.2 | -1.1
